Sfp PPTase inh – Sfp phosphopantetheinyl transferase inhibition; Q9F4F7; Biochemical Sfp PPTase activity, qHTS; Potency, µM, for inactives: max response, negative = inhibition, most hits filed as inhibitors; 310,000 tested, 3.5% active; AID 1490; active means well fitted inhibition curve with a large enough effect; inconclusive means small, poorly fitted or top-dose-only effect, or another doubt; inactive means no such curve, though single readings can be large or run the other way;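 further: the enzyme is Sfp with the accession as filed and its product quenches rhodamine fluorescence; potency means the concentration at half of the fitted maximal effect; 0% = enzyme reaction without inhibitor and -100% = no enzyme wells; top concentration of the series not given in the record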
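Reaction rates are the 30-min fluorescence difference (ex 525, em 598 nm) in wells containing 15 nM Sfp, 5 uM rhodamine-CoA and 12.5 uM BHQ-2-YbbR at pH 7.6 with 10 mM MgCl2.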
gsp antagonist – antagonizes gsp, the McCune-Albright syndrome mutation. Potency, µM (series often up to 76.9 µM), inactives show top-dose activity change, negative = inhibition, most hits filed as inhibitors. 340,000 tested, 0.4% active. AID 624288. gsp-mutant cells, cAMP HTRF, 30 min; control for the full effect not named in the record; active = falling curve of any shape with a large fitted effect; inconclusive = falling curve, mostly with a smaller effect; inactive = flat or rising curve; cell line not stated here;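 further: intracellular cAMP measured with PDE inhibitor Ro 20-1724 present during compound exposure; potency means the concentration at half of the fitted maximal effect; on the % scale 0 is the no-effect control and ±100 the full control effect; nearly all actives have a fitted effect of over 65% in size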
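HTRF cAMP read-out (cAMP-d2 plus anti-cAMP antibody-K in lysis buffer, 30 min RT). Before lysis, cells are exposed to compounds with […] for 30 min at 37C in DPBS containing Ca/Mg, BSA and Tween 20.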
D2 potentiator – positive allosteric modulators of human D2 dopamine receptor. DiscoveRx D2 beta-arrestin cells, luminescence, 90 min; 100% = 57 uM dopamine signal. 360,000 tested, 0.23% active. potentiation, % (concentration not given with the values); active = potentiation of 50% or more; inconclusive = 30% to 50%; inactive = 30% or less;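 further: compound concentration not given in the record; tested on top of an EC20 dose of dopamine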
Target sequence (P14416 whole entry, looked up): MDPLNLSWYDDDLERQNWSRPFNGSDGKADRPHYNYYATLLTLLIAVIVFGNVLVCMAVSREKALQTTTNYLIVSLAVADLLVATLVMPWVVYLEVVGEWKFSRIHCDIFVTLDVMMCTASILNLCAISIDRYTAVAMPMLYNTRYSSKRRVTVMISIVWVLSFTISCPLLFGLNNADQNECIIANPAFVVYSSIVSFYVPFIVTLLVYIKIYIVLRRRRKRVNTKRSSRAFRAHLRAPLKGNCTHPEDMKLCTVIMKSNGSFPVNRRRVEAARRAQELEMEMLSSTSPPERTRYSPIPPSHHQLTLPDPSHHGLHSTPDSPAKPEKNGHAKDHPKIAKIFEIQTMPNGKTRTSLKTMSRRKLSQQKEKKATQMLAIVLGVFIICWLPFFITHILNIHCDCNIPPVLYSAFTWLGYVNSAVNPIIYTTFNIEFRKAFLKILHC
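D2 cells co-treated with compound plus 50 nM dopamine (EC20) for 90 min at 37 deg C to detect potentiation. Beta-arrestin recruitment was read as enzyme-fragment luminescence after 1 h at ambient temperature. Full response was set by 57 uM dopamine.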
gsp ag – agonists of gsp mutant (McCune-Albright syndrome). gsp mutant cells, cAMP HTRF, 30 min; control for the full effect not named in the record. 340,000 tested, 0.13% active. Potency, µM (highest dose often 76.9 µM), for inactives: top-dose activation (cAMP increase), usual class: activators; active = well fitted activation curve with a large enough effect; inconclusive = small, poorly fitted or top-dose-only effect, or another doubt; inactive = no such curve, though single readings can be large or run the other way; cell line not stated here;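 further: phosphodiesterase inhibitor Ro 20-1724 added with compounds to block cAMP breakdown; potency means the concentration at half of the fitted maximal effect; nearly all actives have a fitted effect of over 60% in size; about a fifth of the inactives were tested at one dose only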
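Cells in DMEM/10% FBS with G418 were pretreated with compounds in DMSO plus […] (300 uM stock) for 30 min at 37C. cAMP was measured by HTRF (cAMP-d2 plus anti-cAMP antibody-K) after 30 min at room temperature.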
TRPV1 PAM – enhances activation of the human vanilloid receptor TRPV1 | potentiation, % at 8.33 µM | 320,000 tested, 0.02% active | AID 540277 | TRPV1-expressing cells, Fluo-8 calcium influx, capsaicin EC20 potentiation; host cell line not named in the record; control for the full effect not named in the record | Q8NER1; active means potentiation above 80%; inconclusive means 30% to 80%; inactive means below 30%; further: 0% is about no effect
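Fluo-8 calcium influx in TRPV1-expressing cells, kinetic read (ex 480/em 520 nm). Compound added and read 3 min for agonist activity, followed by capsaicin at EC20 final and 2 min further read for enhancement.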
Menin-MLL FL inh – menin-MLL binding inhibition, fluorescein peptide | Fluorescence polarization, fluorescein-MLL peptide displacement from menin | FP activity change, % at 61.4 µM | 290,000 tested, under 10 active | AID 1766; inconclusive = falling polarisation curve, or a change in total fluorescence; inactive = total fluorescence flat and polarisation flat or rising; no compound was filed as active; the % refers to the polarisation; negative = inhibition;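 further: % of control where 0% means no effect; inhibitors lower the polarisation; unlabelled MLL peptide was the positive control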
ClpP mod – qHTS Assay for Activators of ClpP | 340,000 tested, 1.9% active | ATP-dependent Clp protease proteolytic subunit (Bacillus subtilis (strain 168)), P80244 | purified B. subtilis ClpP, FRET peptide cleavage, 20 min | Potency, µM (top dose mostly 57.5 µM), inactives show at the highest dose activity change, negative = active; active = well fitted falling curve with a large enough effect; inconclusive = small, poorly fitted or top-dose-only effect; inactive = no such curve, though single readings can be large or run the other way; further: potency means the concentration at half of the fitted maximal effect; the source files actives as falling curves though it sought activators and does not explain the sign; nearly all actives have a fitted effect of over 65% in size; many hits overshoot -100%
Target sequence (P80244 whole entry, looked up): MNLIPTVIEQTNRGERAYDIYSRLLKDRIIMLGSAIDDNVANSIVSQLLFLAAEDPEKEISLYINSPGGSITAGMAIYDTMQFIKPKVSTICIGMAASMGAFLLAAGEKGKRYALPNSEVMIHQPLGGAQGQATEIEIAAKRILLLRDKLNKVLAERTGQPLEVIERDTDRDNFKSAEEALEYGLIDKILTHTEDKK
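ClpP 10 microg/mL final, pH 8 Tris/KCl buffer with BSA, glycerol, Tween-20; compound pinned in; FRET-FV substrate; RT 20 min; Ex320/Em430; ΔFRET vs ADEP 5.8 microM, DMSO, no enzyme.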
Starred values were filed as active, the others as inactive; ? = inconclusive; . = not tested or not shown; & = joins results of further samples; [ ] = dose if it differs, or a comment. The order is random; about 5.1% have a hit in one of these screens.

SMILES | Sfp PPTase inh | gsp antagonist | D2 potentiator | gsp ag | TRPV1 PAM | Menin-MLL FL inh | ClpP mod
O=C(Nc1ccc(OCc2ccccc2)cc1)c1cccnc1 | 12% | -4% | 7 | -21% | 10 | -1.1 | 0.5%
Cc1ccc(C(=O)Oc2ccc([N+](=O)[O-])cc2)cc1S(=O)(=O)N1CCCCCC1 | 0% | -10% | -24 | 8% | 1 | 1.3 | -4.9%
CC(C)N(C(=O)CSc1nnc(Cc2ccc3c(c2)OCO3)n1C)C(C)C | 1% | -3% | -13 | -29% | 14 | 0.9 | -0.7%
CC(=O)N1CCOc2ccc(S(=O)(=O)N3C(C)CCCC3C)cc21 (stereo unspecified) | 12% | 2% | -7 | ? | -10 | 8.0 | -1.2%
CCOC(=O)C1CCN(C(=O)c2cc3cc4ccc(C)cc4nc3o2)CC1 | 3% | -12% | -2 | 25% | -23 | -2.4 | 4.0%
Cc1c(C(=O)O)sc(S(=O)(=O)N2CCN(C(=O)Cc3ccc(Cl)cc3)CC2)c1C(=O)O | . | 9% | -8 | -30%[inhibitor] | . | . | -0.7%
CC(C)C(=O)Nc1cccc(S(=O)(=O)NC2=NCCC2)c1 | . | . | -17 | -56%[inhibitor] | . | . | -1.1%
O=C(c1cc2nc(-c3ccc(F)cc3)cc(C(F)(F)F)n2n1)N1CCCCC1c1cccnc1 (stereo unspecified) | -16% | ? | -15 | 7%[15.4 µM] | -2 | -0.6 | -9.5%
CCN(CC(=O)Nc1ccccc1C(F)(F)F)CC(=O)c1[nH]c(C)c(C(C)=O)c1C | . | . | -19 | -29% | . | . | -1.7%
CN1CCc2c(OCC(=O)N3CCCc4ccccc43)cccc2C1=O | 12% | -1% | -23 | -13%[15.4 µM] | -8 | -1.2 | -18%
Cc1ccc(NC(=O)CN2CCN(c3ccccn3)CC2)cc1S(=O)(=O)N(C)C | 27% | -36% | 8 | -9%[15.4 µM] | -1 | -4.3 | 0.3%
O=C(Nc1ccccn1)[C@@H]1CCC(=O)N1C(=O)OCc1ccccc1 | -3% | 7% | 3 | -31% | -8 | 3.2 | -1.8%
Cc1cc2n(n1)SC(Nc1ccc(F)c(Cl)c1)N2 (stereo unspecified) | ? | 2% | -3 | -5% | 3 | 5.3 | 0.0%
CCOC(=O)N1CCN(c2c(NCc3cccs3)c(=O)c2=O)CC1 | 19% | 6% | -4 | -145%[inhibitor] | -9 | 8.4 | -2.4%
CS(=O)(=O)Nc1ccccc1C(=O)Nc1ccc2c(c1)OCCO2 | 4% | -22% | -10 | -26% | 3 | -1.9 | -2.9%
COc1ccc(-c2noc(CNC(=O)c3ccoc3C)n2)cc1OC | 18% | . | 7 | 13%[15.4 µM] | 13 | 6.4 | .
CCOc1cc(N2CCOCC2)c(OCC)cc1NC(=O)COc1ccccc1[N+](=O)[O-] | 5% | -14% | 5 | -6%[15.4 µM] | -20 | -1.0 | .
Cc1ccc(S(=O)(=O)/N=C(/Nc2ccc3[nH]c(=O)[nH]c3c2)c2ccccc2)cc1 | -8% | 4% | -5 | -6%[15.4 µM] | -9 | 0.7 | .
CCn1c(SCC(=O)N2CCOCC2)nc2ccccc21 | 10% | 3% | 5 | -3%[15.4 µM] | -21 | 2.8 | .
O=C(CSCc1ccccc1)NCCCN1CCOCC1 | 23% | 11% | -3 | 5% | -3 | -1.2 | .
O=C(NC1CCCCC1)c1cc2ccccc2cc1O | ? | -6% | 1 | 25%[15.4 µM] | -15 | -0.4 | .
O=C(c1cccnc1)N1CCN(c2ccc(Cl)cc2)CC1 | -17% | 1% | -15 | -1% | -12 | -0.7 | 1.7%
CC(C)NS(=O)(=O)c1ccc(NC(=O)NC2CCCCC2)cc1 | -5% | 8% | -2 | 4% | 5 | 3.9 | -5.3%
CN(Cc1ccccc1)c1nc2c(c(=O)[nH]c(=O)n2C)n1CCCc1ccccc1 | -22% | 5% | -20 | -2% | -3 | 0.7 | -11%
O=C(Nc1ccc2c(c1)C(=O)NC2=O)c1ccc(Cl)s1 | -17% | -10% | -27 | -4% | -10 | 0.4 | 4.2%
Cc1c(NC(=S)/C=C2\N(C)c3ccccc3C2(C)C)c(=O)n(-c2ccccc2)n1C | 50µM* | -9% | -12 | ? | -21 | 0.7 | -2.7%
CCCCN1C(N)=NC[C@@H]1Cc1ccc(O)cc1 | 15% | -3% | -5 | -10% | -9 | 3.5 | 1.0%
Cc1cc(Nc2ccc(F)cc2)c2ccccc2n1 | . | . | -13 | -6% | . | . | -0.7%
COc1cc(OC)cc(C(=O)NCCOC23CC4CC(CC(C4)C2)C3)c1 | 13% | -16% | -3 | 2.5µM* | -6 | -4.4 | -0.7%
N#CC(c1cccc([N+](=O)[O-])c1)C(CC(=O)c1ccccc1)c1ccccc1 (stereo unspecified) | . | . | -6 | ? | . | . | 0.7%
CC(C)CNS(=O)(=O)c1ccccc1C(=O)N1CCCCC1 | 15% | -2% | 4 | 2% | -16 | 0.3 | -0.5%
CCCNC(=O)CN(C)C(=O)c1n[nH]c2ccccc12 | -1% | -3% | -10 | -22% | -25 | -0.9 | -1.0%
CN(C)CCNC(=O)c1ccc(COCC(F)(F)F)cc1 | 14% | 3% | 3 | -34%[inhibitor] | -11 | 1.1 | 0.5%
CCOC(=O)C(Cc1ccc(NC(=O)/C(=C/c2ccccc2)NC(=O)c2ccccc2)cc1)N1C(=O)c2ccccc2C1=O (stereo unspecified) | 17% | ? | -25 | -53%[inhibitor] | -4 | 2.7 | -5.1%
COc1ccc(-c2cc(C(=O)O)no2)cc1 | -2%&-6% | 1% | -1 | 5%[15.4 µM] | 1 | 15&15 | .
CCOC(=O)Cn1c(=NC(=O)C2CC2)sc2c(C)cc(C)cc21 | 7% | 4% | 1 | 9% | -9 | 0.7 | -7.8%
Cc1cccc(C)c1-n1c(C)cc(/C=N\Nc2ccc([N+](=O)[O-])cn2)c1C | -6% | 16% | -17 | 1% | -7 | 1.8 | 1.7%
C=CCn1c(CSc2ccc(C)cc2)n[nH]c1=S | -6% | -2% | -11 | 11% | 4 | 4.4 | -0.8%
O=C(Nc1ccc(Cc2ccc(NC(=O)N3CCOCC3)cc2)cc1)N1CCOCC1 | -3% | 8% | -8 | -4% | -2 | 2.7 | -1.8%
COCC(=O)Nc1cc(OC)ccc1OC | 4% | -2% | 2 | 7% | 8 | 0.3 | -2.4%
Cc1cc(C)n(-c2ccc(C(=O)N3CCN(S(=O)(=O)c4ccc(OC(F)(F)F)cc4)CC3)cc2)n1 | . | . | -35 | -68%[inhibitor] | . | . | -0.4%
Cc1ccc(NC(=O)c2cccnc2C(=O)O)nc1 | 56µM* | 12% | -1 | 16% | -1 | -0.2 | .
COc1ccccc1CC(=O)Nc1ccc(F)cc1F | 10% | 5% | -4 | -2% | 0 | 1.5 | 2.4%
COC(=O)c1cc(NC(=O)Cn2c(=O)cnc3ccccc32)cc(C(=O)OC)c1 | 9% | -1% | -17 | -21% | -17 | 0.2 | -9.3%
CC(C)Cn1cc(C(=O)NCCCN2CCC(C)CC2)c2c3ccccc3n(C)c2c1=O | . | 8% | -9 | -21%[15.4 µM] | . | . | .
COc1ccc(OC)c(C2CC(=O)N3CN(c4cccc(Cl)c4)CSC3=C2C#N)c1 (stereo unspecified) | 10µM* | 3% | -1 | -51% | . | -3.3 | 2.7%
Cc1cccc(N2CCN(C(=O)c3ccncc3)CC2)c1C | 18% | 6% | -6 | -19% | -14 | 0.1 | 0.7%
CNC(=O)CN(c1ccc2c(c1)OCCO2)S(C)(=O)=O | 4% | -8% | -3 | 1% | -1 | 1.2 | 1.0%
Cc1ccc(CN2CCN(Cc3cccn3-c3ccccn3)CC2CCO)o1 (stereo unspecified) | 3% | 11% | -11 | -12% | 3 | -3.5 | -3.2%
COc1ccc(N/N=C/c2c(C(=O)O)ccc3ccccc23)cc1 | 2% | -18% | -22 | 27% | -22 | ? | -1.4%
COc1ccc(NC(=O)CN(C)C(=O)c2cc3c(cc2Cl)N2CCCCCC2=NS3(=O)=O)cc1 | . | 4% | -5 | -31%[15.4 µM] | 0 | . | .
O=C(NCc1ccco1)C1CCCN(S(=O)(=O)c2ccc(-n3cnnn3)cc2)C1 (stereo unspecified) | 40µM* | -2% | 19 | -3% | -2 | 9.6 | -1.5%
CCC(=O)N1CCc2cc(S(=O)(=O)CCC(=O)N3CCCC(C)C3)ccc21 (stereo unspecified) | 7% | -6% | -7 | -12% | -10 | . | 1.3%
CCC(=O)Nc1ccc(S(=O)(=O)Nc2nccs2)cc1 | 9% | 8% | -3 | -4%[15.4 µM] | -18 | -6.0 | -1.1%
Cc1ccc2c(C)c(C(=O)N3CCC(O)(c4ccccc4)CC3)oc2c1C | 3% | -6% | -5 | 7%[15.4 µM] | -5 | 0.0 | 0.6%
COc1ccccc1C(=O)NC(CCSC)C(=O)OCC(=O)N1CCCC1=O (stereo unspecified) | . | -8% | -5 | 1% | 3 | . | -2.4%
CCOC(=O)c1ccc(C(=O)NNC(=O)C2C3C=CC(C3)C2C(=O)O)cc1 (stereo unspecified) | 50µM* | 0% | -10 | 23% | -14 | . | -2.5%
CCN(CC)C(=O)c1ncn(C)c1C(=O)N(CC)CC | . | 8% | -7 | ? | . | . | 1.0%
C/C(=N/NS(=O)(=O)c1ccc(C)cc1C)c1c[nH]c2ccccc12 | 8% | -14% | 6 | -7% | 0 | 5.3 | -3.0%
Cc1cc(S(=O)(=O)N2CCOCC2)ccc1OCC(=O)Nc1ccc(F)c(Cl)c1 | 19% | . | -15 | -6%[15.4 µM] | 1 | 4.6 | .

3 entries drawn at random from the list so far:
SMILES | Sfp PPTase inh | gsp antagonist | D2 potentiator | gsp ag | TRPV1 PAM | Menin-MLL FL inh | ClpP mod
Cc1c(NC(=S)/C=C2\N(C)c3ccccc3C2(C)C)c(=O)n(-c2ccccc2)n1C | 50µM* | -9% | -12 | ? | -21 | 0.7 | -2.7%
COc1ccc(-c2cc(C(=O)O)no2)cc1 | -2%&-6% | 1% | -1 | 5%[15.4 µM] | 1 | 15&15 | .
C=CCn1c(CSc2ccc(C)cc2)n[nH]c1=S | -6% | -2% | -11 | 11% | 4 | 4.4 | -0.8%
